# H5N1 antiviral = MDCK cell protection from H5N1 avian flu; cytopathic effect, luminescence, 72 h; active compounds read high; no value below 0 was filed and about half of the inactive calls have no number; reference of the scale not given here; inhibition, % at 50 µM; 96,000 tested, 0.07% active; AID 740, 2007; in the data active means inhibition above about 25%
# Numbers without * were called inactive; i = inactive. Some of the compounds tested. The share of hits here may be higher or lower than overall.
SMILES,H5N1 antiviral
CC1CCC(NS(=O)(=O)c2ccc3c(c2)n(C)c(=O)c(=O)n3C)CC1 (stereo unspecified),0.6
CN1CCc2c(sc3c2C(=O)NC(c2cccc(OC(=O)c4cccs4)c2)N3)C1 (stereo unspecified),1.6
CCS(=O)(=O)c1ccc(O)c(N2C(=O)C3C4C=CC(C4)C3C2=O)c1 (stereo unspecified),i
O=C1CCC(=O)N1c1cccc(-c2nc3ccccc3o2)c1,0.5
O=C(c1c(Cl)nc2sccn12)N1CCCc2ccccc21,5.6
COC(=O)CSC1=C(C#N)C(=O)NC(c2ccccc2)S1 (stereo unspecified),7.7
COC(=O)c1ccc(NC(=O)c2ccc3c(c2)OCO3)cc1,0.4
Cc1ccc(C2=NN(C(=S)Nc3ccccc3)C(c3ccco3)C2)cc1 (stereo unspecified),0.1
COc1ccc(C(=O)c2coc3ccc(O)c(CN4CCOCC4)c23)cc1,0.1
O=C(COc1ccccc1)NC1CCN(Cc2ccccc2)CC1,0.1

# Looked up by compound from the list above, 4 records:
SMILES,H5N1 antiviral
CC1CCC(NS(=O)(=O)c2ccc3c(c2)n(C)c(=O)c(=O)n3C)CC1 (stereo unspecified),0.6
COc1ccc(C(=O)c2coc3ccc(O)c(CN4CCOCC4)c23)cc1,0.1
COC(=O)c1ccc(NC(=O)c2ccc3c(c2)OCO3)cc1,0.4
COC(=O)CSC1=C(C#N)C(=O)NC(c2ccccc2)S1 (stereo unspecified),7.7

# Back to the main list, starting 6 compounds before the break.
SMILES,H5N1 antiviral
O=C(c1c(Cl)nc2sccn12)N1CCCc2ccccc21,5.6
COC(=O)CSC1=C(C#N)C(=O)NC(c2ccccc2)S1 (stereo unspecified),7.7
COC(=O)c1ccc(NC(=O)c2ccc3c(c2)OCO3)cc1,0.4
Cc1ccc(C2=NN(C(=S)Nc3ccccc3)C(c3ccco3)C2)cc1 (stereo unspecified),0.1
COc1ccc(C(=O)c2coc3ccc(O)c(CN4CCOCC4)c23)cc1,0.1
O=C(COc1ccccc1)NC1CCN(Cc2ccccc2)CC1,0.1
Cc1[nH]n(-c2ccccc2)c(=O)c1S(=O)(=O)c1ccccc1,0.1
COc1cccc(C2NC(CC(C)C)(C(=O)O)C3C(=O)N(Cc4ccccc4)C(=O)C23)c1O (stereo unspecified),i
CC(CN1CCCCC1)OC(=O)c1ccccc1Cl (stereo unspecified),i
COc1ccc(C2C(C(=O)NCC3CCCO3)CCC(=O)N2c2ccc3c(c2)OCO3)cc1 (stereo unspecified),0.4
O=C(O)CSc1nnc(-c2cccs2)n1-c1ccc(Cl)cc1,0.2
Cc1ccccc1-c1nc(CN2CCC(C(=O)N3CCN(c4ccccn4)CC3)CC2)c(C)o1,1.0
COc1ccccc1NC(=O)C1CC(=O)OC1c1ccccc1 (stereo unspecified),i
O=C(NCc1ccccn1)c1cc(S(=O)(=O)N2CCN(c3ccccc3)CC2)ccc1Cl,2.5
Cc1ccc(N2CCN(/N=C/c3sccc3C)CC2)cc1,i
COCCN(C(=O)C(C)C)c1nnc(-c2cccc(C)c2)s1,i
CCN(CC)c1ncccc1C(=O)NCc1cccs1,0.9
CCOC(=O)c1c(-c2ccc(C)o2)csc1NC(=O)CSc1ncn[nH]1,1.6
COC(=O)c1cc(NC(=O)CN2CCOCC2)cc(C(=O)OC)c1,i
CCOC(=O)C(C)Oc1cccc2c(=O)n(CC(=O)Nc3ccc(OCC)cc3)ccc12 (stereo unspecified),0.2
O=C(CSc1nc(-c2ccccc2)cc(C(F)(F)F)n1)N1CCOCC1,1.5
CCC1CCCCN1CCn1c(=S)[nH]c2cc(OC)c(OC)cc2c1=O (stereo unspecified),1.9
Cc1ccc2c(c1)N(CC(=O)NC1CCC(C)CC1)C(=O)CO2 (stereo unspecified),1.5
CC(=O)Nc1c(O)nc(SCC(=O)Nc2nnc(CC(C)C)s2)[nH]c1=O,i
O=C(Nc1nc(=S)ss1)c1ccc(Cl)cc1Cl,0.1
Cc1ncc(N=Nc2ccccc2)c(-c2ccccc2)n1,2.9

# Reprinted from the part before: 4 compounds, then new ones.
SMILES,H5N1 antiviral
Cc1ccc2c(c1)N(CC(=O)NC1CCC(C)CC1)C(=O)CO2 (stereo unspecified),1.5
CC(=O)Nc1c(O)nc(SCC(=O)Nc2nnc(CC(C)C)s2)[nH]c1=O,i
O=C(Nc1nc(=S)ss1)c1ccc(Cl)cc1Cl,0.1
Cc1ncc(N=Nc2ccccc2)c(-c2ccccc2)n1,2.9
Cc1ccc(NC(=O)c2cccc(OCc3c(C)noc3C)c2)cc1,i
Cc1ccccc1-c1nc(CS(=O)CC(=O)NCCCN(C)c2ccccc2)c(C)o1 (stereo unspecified),0.6
COc1ccccc1C(c1nnnn1C(C)(C)C)N1CCN(C(=O)c2ccco2)CC1 (stereo unspecified),2.4
CCC(CC)C(=O)Nc1cccc(C(=O)NCc2ccco2)c1,0.7
O=C(CN1CCN(c2ccccc2)CC1)N1CCN(c2ccccc2)CC1,2.1
CC(=O)N1CCN(CC(=O)Nc2c(Cl)cc(Cl)cc2Cl)CC1,i
O=C(/C=C/c1ccco1)NC(=S)Nc1ccc(Cl)cn1,1.2
CSc1ccccc1NC(=O)c1onc(C)c1Cl,i
COc1ccc(Br)cc1C(=O)NCc1cccnc1,0.6
COc1cccc(OC)c1C(=O)OCC(=O)Nc1ccc(OC(F)(F)F)cc1,0.5
O=C(CCc1ccc(S(=O)(=O)N2CCOCC2)cc1)NCCc1ccccn1,i
CCOC(=O)N1CCN(C(=O)CSCc2ccc(Cl)cc2)CC1,0.8
O=C(c1ccc(Cl)cc1)N1CCC(O)(CSc2ccc(Cl)cc2)CC1,i
Cc1ccc(NC(=O)CCSc2nnnn2-c2ccc3c(c2)OCO3)cc1C,i
COc1cc(NC(=O)C2CCCCC2)c(OC)cc1NC(=O)CCC(=O)NCc1ccco1,i
O=c1[nH]c(=S)n(Cc2ccc(F)cc2)c(O)c1C=NCC1CCCO1 (stereo unspecified),1.6
Cc1c(C(=O)N2CCN(c3ccccc3F)CC2)sc2nc(-c3ccccc3)cn12,0.7
Cc1cc(=O)oc(C)c1C(=O)Nc1ccc(Cl)cn1,i
CCOc1ccccc1N1C(=O)c2cccnc2C1=O,i
O=C(O)CCNS(=O)(=O)c1ccc(Oc2ccccc2Cl)cc1,i
Cc1cc(=O)n(CCO)c(O)c1C#N,1.7
COc1cc2cc(CN(CCO)C(=O)c3cccs3)c(=O)[nH]c2cc1OC,i
COC(=O)C1OC2(OC1C(=O)OC)c1ccccc1-c1ccccc12 (stereo unspecified),i
O=C1CN=C(Nc2ccc(Cl)cc2)N1c1ccccc1,i
COc1ccc2c(CCN)c[nH]c2c1,i
O=C(c1ccc(S(=O)(=O)N2CCCCC2)cc1)c1nnc(-c2ccc(Cl)cc2)o1,0.2
CC1(CCC#N)N=C(SCCC#N)N(c2ccccc2)C1=O (stereo unspecified),0.3
C=C(C)Cn1c(CNC(C)=O)nc2ccccc21,i
CC(C)N(C(=O)CSc1nnnn1C1CCCC1)C(C)C,1.5
COc1ccc(C(=O)c2sc3nc(-c4ccccc4)ccc3c2N)cc1OC,i
CC(C)C(OC(=O)c1ccco1)C(=O)NCc1ccccc1 (stereo unspecified),0.6
Cc1cc(C)n2c(SCC(=O)Nc3ncc(C(F)(F)F)cc3Cl)nnc2n1,i
CCCNC(=O)Cn1cnc2sc(C(=O)N3CCN(CCC)CC3)c(C)c2c1=O,0.5
O=C(Cc1ccc(Nc2nc3ccc(Br)cc3[nH]2)cc1)NCCc1cccs1,i
CC1CCN(c2ncnc3c2cnn3Cc2ccc(Cl)cc2)CC1,i
CNc1nc(C)cc(C)c1S(=O)(=O)c1ccc(C)cc1,1.5
Cc1cccn2c(NCC3CCCO3)c(C(C)C)nc12 (stereo unspecified),0.4
CCOc1ccccc1OCCOc1ccccc1CC,i
Cc1ccc(NC(=S)NC2CCCC2)cc1,0.6
CC1(C)CC(=O)c2cc(OCC(=O)N3CCN(c4ccccc4F)CC3)ccc2O1,0.2
CCCC(=O)Nc1nnc(-c2ccc(Cl)s2)o1,0.7
O=c1c2ccccc2ncn1CCCSc1ccccc1,i
COc1ccc(C(=O)Oc2cc(/C=N/NS(=O)(=O)c3ccc(C)cc3)ccc2OC)cc1,i
CN1CCN(C(=O)c2cc3nc(-c4ccc(F)cc4)cc(C(F)(F)F)n3n2)CC1,0.1
COc1ccccc1CNC(=O)C(C)NS(=O)(=O)c1ccc(C)cc1 (stereo unspecified),0.4
COc1ccc(-c2c3c(nc4sc(C(=O)Nc5cc(C)on5)c(N)c24)CCC3)cc1,i
CC/C(C)=C1\SC(N2CCN(C(C)=O)CC2)=NC1=O,0.7
O=S(=O)(c1ccc2ccccc2c1)n1cnc2ccccc21,5.6
COCCCn1c(SCC(=O)Nc2nnc(C)s2)nnc1-c1ccoc1C,0.1
CC(=O)Nc1cc(S(=O)(=O)Nc2ccccc2C)c(C)cc1C,1.0
# (next part)
SMILES,H5N1 antiviral
COc1cccc(OC)c1OCCCN1CCOCC1,1.1
COc1ccc(-c2nc3ccccc3c(=O)n2N)cc1,i
O=c1c2cnn(-c3ccccc3)c2nc(-c2cccs2)n1-c1ccc(Cl)cc1,2.0
CCC/C(=N\O)c1c[nH]c2ccccc12,i
Cc1nc(SCC(=O)N2CCOCC2)c2ccsc2n1,i
Cc1ccc(NC(=O)C2(c3ccccc3)CC2(Cl)Cl)cc1C (stereo unspecified),6.8
COc1cccc(C2=Nn3c(nnc3-c3ccccc3O)SC2)c1,i
COc1ccccc1Cn1nnc2c(=O)[nH]c(C3CCN(C(=O)c4ccccc4Cl)CC3)nc21,i
Cc1ccccc1C(=O)N1CCC(C(N)=O)CC1,i
CC(=O)/C(C#N)=C1\NC(=O)C(Cc2ccccc2)S1 (stereo unspecified),0.4
CCN1CCN(c2nn3c(=O)c4ccccc4nc3c3ccccc23)CC1,i
O=C(CNc1ccccc1)N/N=C/c1ccc([N+](=O)[O-])o1,0.3
Cc1ccccc1CS(=O)(=O)Cc1ccc(C(=O)NCCCN2CCOCC2)o1,0.4
C=CCn1c(=O)c2c(nc3n2CCN3c2cccc(Cl)c2C)n(C)c1=O,0.5
Cc1ccc(C(C)C)c(OCCNC(=O)c2cncc(Br)c2)c1,i
Cc1nnc(SC(C)C(=O)Nc2ncc(Cl)cc2Cl)n1Cc1ccccc1 (stereo unspecified),0.3
Cc1cc(Nc2ccccc2Cl)n2nnnc2n1,0.8
O=C1OC(c2ccc(Cl)cc2)/C(=C(/O)c2ccccc2)C1=O (stereo unspecified),0.3
O=C(CSc1nnc2n(C3CCCC3)c(=O)c3ccccc3n12)N1CCCCCC1,1.4
COc1ccc(/C(O)=C2/C(=O)C(=O)N(c3ncccn3)C2c2ccc(OC)c(OC)c2)cc1 (stereo unspecified),i
COC(=O)c1n[nH]c2ccccc12,0.7
O=C(CCn1nnc2ccccc2c1=O)NCC1CCC(C(=O)O)CC1 (stereo unspecified),i
COc1cc(OC)nc(NC(=O)CSc2nc3ccccc3o2)n1,1.9
CSc1nc(NCc2ccco2)c2c3c(sc2n1)CN(C)CC3,1.7
CCOc1ccc(S(=O)(=O)Nc2nc3ccc(OC)cc3s2)cc1,i
COc1ccc2[nH]c3c(c2c1)CN(C)CC3,i
Cc1[nH]c(=O)[nH]c(=O)c1NS(=O)(=O)c1ccc2c(c1)CCCC2,1.1
CC(=O)Nc1ccc(S(=O)(=O)Nc2ncccn2)cc1,i
CCn1nc(C(=O)Nc2nc3ccc(C)cc3s2)c2ccccc2c1=O,i
CCN(CC)C(=O)C1CCCN(C/C=C/c2ccccc2)C1 (stereo unspecified),1.5
COCCN1CC(O)=C(c2nc3ccccc3c(=O)[nH]2)C1=N,0.6
COc1cccc(Nc2nc3ccccc3nc2NS(=O)(=O)c2cccs2)c1,i
CCNC(=O)COC(=O)COc1ccc(Cl)cc1C,i
CCOC(=O)c1c(C)oc2ccc(OCC(N)=O)cc12,1.3
Cc1cc2c(cc1C)CSC(c1ccccc1O)SC2,i
C=CCn1ncc(OC)c(Cl)c1=O,1.1
CCCc1c(O)c2ccccc2n(-c2ccccc2)c1=O,i
Cc1cc(N2CCOCC2)c(F)cc1C(=O)c1ccccc1,0.6
COc1ccc(NCC(=O)Nc2ccccc2C#N)cc1Cl,0.6
CN1CCc2c(sc3c2c(=O)n(-c2ccccc2)c2nnc(SCc4ccc(Cl)cc4)n32)C1,4.0
CCOC(=O)C1=C(c2ccccc2)O/C(=C(/C#N)C(F)(F)F)S1,i
CCC(C)(C)NC(=O)CN(C(=O)c1snc(C(N)=O)c1N)c1ccc(OC)c(OC)c1,i
COc1ccc(N(CC(=O)N2CCc3ccccc3C2)S(C)(=O)=O)cc1,i
Cc1noc(C)c1S(=O)(=O)N1CCCC(C(=O)NCCc2ccc(Cl)cc2)C1 (stereo unspecified),i
Cc1cccc(C(C)C)c1NC(=O)c1cccnc1,2.5
CCN(CC(=O)Nc1cc(C)nn1-c1nc(C)cc(C)n1)Cc1ccccc1,0.6
O=C(NCc1nc(-c2ccccc2)no1)c1cccs1,1.0
COc1cc(OC)c(C2N(c3ccccn3)C(=O)C3CCCN32)cc1OC (stereo unspecified),i
CC1CCc2nn(CC(=O)N3CCc4ccccc43)cc2C1 (stereo unspecified),i
O=C(NCc1nc(-c2ccccc2)no1)c1ccc2c(c1)OCO2,0.5
# Other results follow:
SMILES,H5N1 antiviral
CCc1ccc2nc(Nc3nc(COC)cc(=O)[nH]3)nc(C)c2c1,i
COC(=O)c1ccccc1NC(=O)COC(=O)CSCC(=O)N1CCOCC1,2.4
O=C1NCCCc2c1oc1cc(Br)c(O)c(Br)c21,4.6
O=C(CSc1nnc(-c2cccs2)o1)N1CCOCC1,2.1
COCc1[nH]nc2c1C(C1C=CCCC1)C(C#N)=C(N)O2 (stereo unspecified),1.4
COc1ccc(-c2cc3ccccc3n2CC(O)CNCCO)cc1 (stereo unspecified),0.2
CCCC(=O)N1CCN(S(=O)(=O)c2cc(Cl)ccc2OC)CC1,0.6
COc1ccc(-c2cc(C(=O)O)c3c(C)nn(-c4ccccn4)c3n2)cc1,i
Cc1ccc(OCC(=O)N2CCN(C(=O)c3cccs3)CC2)cc1,i
